# UUG fidelity: modulators of yeast start codon fidelity, primary screen, whole organism, S. cerevisiae, single point, plate reader | hit rate 0.13% among 350,000 | S. cerevisiae UUG-firefly luciferase reporter, luminescence/redox ratio | activity score, % at 18.7 µM;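 active means replicate mean at a twofold rise or more, about +100% in these data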;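 further: firefly luciferase made from a UUG start codon reports start codon fidelity; reporter light over untreated wells divided by growth signal over untreated wells; some hits fall short of that in this replicate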
# * hit, by the source's call.
UUG fidelity | Compound
23 | C[C@H]1CN([C@@H](C)CO)C(=O)c2cc(NC(=O)CCC(F)(F)F)ccc2O[C@@H]1CN(C)C(=O)Nc1ccc(F)cc1
10 | C[C@@H]1CN([C@H](C)CO)C(=O)c2cc(NC(=O)NC3CCCCC3)ccc2O[C@H]1CN(C)S(=O)(=O)c1ccccc1
-3 | O=C(c1ccccn1)N1C[C@@H]2[C@H](c3ccccc31)[C@H](CO)N2C(=O)C1CCCCC1
-9 | CCCNC(=O)Nc1ccc2c(c1)C(=O)N(C)C[C@H](OC)[C@H](C)CN(C(=O)C1CC1)[C@H](C)CO2
27 | COc1ccc(C#Cc2ccc([C@@H]3[C@H](CO)N4CCCCN(C(=O)Nc5ccccc5)C[C@@H]34)cc2)cc1
-7 | CCN1[C@@H]2Cn3c(ccc(-c4cccc(F)c4)c3=O)[C@H]1[C@@H](C(=O)NCC1CC1)[C@@H]2CO
17 | CO[C@H]1CN(C)C(=O)c2ccc(NS(=O)(=O)c3ccccc3C)cc2OC[C@@H](C)NC[C@@H]1C
10 | O=C(C[C@H]1CC[C@H]2[C@@H](COC[C@@H](O)CN2Cc2ccc(Oc3ccccc3)cc2)O1)N1CCOCC1
-8 | COCC(=O)N1[C@H](CO)[C@@H](c2ccccc2)[C@@H]1CN(C)C(=O)c1ccncc1
24 | COc1ccccc1C#Cc1ccc([C@@H]2[C@H](CO)N3CCCCN(C(=O)C4CC4)C[C@@H]23)cc1
-3 | COCC(=O)Nc1ccc2c(c1)C(=O)N(C)C[C@H](OC)[C@H](C)CN(C(=O)NC(C)C)[C@@H](C)CO2
-5 | COCC(=O)Nc1ccc2c(c1)C(=O)N(C)C[C@@H](OC)[C@@H](C)CN(C(=O)c1ccncc1)[C@H](C)CO2
-13 | COCC(=O)Nc1ccc2c(c1)OC[C@H](C)N(Cc1ccccn1)C[C@H](C)[C@H](OC)CN(C)C2=O
10 | COCC(=O)N(C[C@H]1N[C@H](CO)[C@H]1c1ccc(C2=CCCCC2)cc1)C(C)C
6 | C[C@@H]1CN([C@@H](C)CO)C(=O)c2cccc(NC(=O)Nc3ccccc3)c2O[C@@H]1CN(C)S(C)(=O)=O
-7 | C[C@@H]1CN([C@@H](C)CO)C(=O)c2cc(NC(=O)Cn3cnnn3)ccc2O[C@H]1CN(C)C(=O)Nc1cccc2ccccc12
6 | Cc1noc(C)c1NC(=O)N(C)C[C@H]1Oc2c(NS(=O)(=O)c3cccs3)cccc2C(=O)N([C@@H](C)CO)C[C@H]1C
10 | C[C@@H]1CN([C@@H](C)CO)C(=O)Cc2cc(NC(=O)Nc3cccc4ccccc34)ccc2O[C@H]1CN(C)Cc1ccc2c(c1)OCO2
1 | COc1ccc(S(=O)(=O)N(C)C[C@@H]2Oc3ccc(NC(=O)CCCN(C)C)cc3CC(=O)N([C@@H](C)CO)C[C@H]2C)cc1
9 | C[C@@H]1CN([C@@H](C)CO)C(=O)c2cccc(NS(C)(=O)=O)c2O[C@@H]1CN(C)C(=O)NC1CCCCC1
-12 | C[C@H](CO)N1C[C@H](C)[C@@H](CN(C)S(=O)(=O)c2ccc(F)cc2)Oc2ccc(NC(=O)c3ccncc3)cc2CC1=O
1 | CNC[C@H]1Oc2ccc(NS(=O)(=O)c3ccc(OC)cc3)cc2C(=O)N([C@H](C)CO)C[C@H]1C
4 | COCC(=O)Nc1ccc2c(c1)OC[C@H](C)N(Cc1ccncc1)C[C@@H](C)[C@@H](OC)CN(C)C2=O
-8 | O=C(C1CCCCC1)N1C[C@H]2[C@@H](c3ccccc31)[C@H](CO)N2CC1CCOCC1
16 | C[C@@H]1CN([C@H](C)CO)C(=O)Cc2cc(NS(=O)(=O)c3ccc(F)cc3)ccc2O[C@@H]1CN(C)C(=O)NC1CCCCC1
-2 | O=C(Nc1ccccc1)N1CCCCN2[C@@H](CO)[C@H](c3ccc(-c4ccccc4F)cc3)[C@@H]2C1
-7 | C/C=C/c1ccc([C@H]2[C@@H](CO)N(C(=O)C3CC3)[C@H]2CN(C)C(=O)CC2CC2)cc1
-19 | O=C(C1CC1)N1CC[C@@H]2[C@H]1c1cc(-c3ccc(F)cc3)ccc1N[C@@H]2CO
-2 | Cc1noc(C)c1S(=O)(=O)Nc1cccc2c1O[C@H](CN(C)C(=O)Nc1ccc3c(c1)OCO3)[C@H](C)CN([C@H](C)CO)C2=O
-5 | CCC(=O)N1[C@@H]2CN(C(=O)c3cccc(OC)c3)c3ccccc3[C@@H]2[C@@H]1CO
4 | CO[C@@H]1CN(C)C(=O)c2ccc(NC(=O)c3cc(C)on3)cc2OC[C@@H](C)N(S(=O)(=O)c2cccc(F)c2)C[C@H]1C
0 | CO[C@H]1CN(C)C(=O)c2cc(NC(=O)C3CCC3)ccc2OC[C@H](C)N(Cc2cccnc2)C[C@H]1C
17 | O=C(C[C@H]1C[C@@H]2c3cc(NC(=O)CC4CC4)ccc3O[C@@H]2[C@@H](CO)O1)NCc1cccnc1
22 | CO[C@H]1CN(C)C(=O)c2ccc(NC(=O)C3CCOCC3)cc2OC[C@@H](C)N(C(C)=O)C[C@H]1C
-1 | COc1ccc(NC(=O)N(C)C[C@@H]2Oc3c(NC(=O)C4CCOCC4)cccc3C(=O)N([C@@H](C)CO)C[C@@H]2C)cc1
-17 | C[C@@H]1CN([C@H](C)CO)C(=O)c2cccc(NC(=O)NC3CCCCC3)c2O[C@@H]1CN(C)S(=O)(=O)c1cccs1
-11 | CCCN1C[C@@H](C)[C@@H](OC)CN(C)C(=O)c2cc(NC(=O)Nc3c(C)noc3C)ccc2OC[C@@H]1C
15 | C[C@H](CO)N1C[C@H](C)[C@@H](CN(C)C(=O)NC2CCCCC2)Oc2ccc(NC(=O)C3CCCCC3)cc2CC1=O
-7 | C[C@H]1CN([C@@H](C)CO)C(=O)c2cc(NC(=O)Nc3ccccc3)ccc2O[C@H]1CN(C)CC1CCCCC1
-9 | CCCNC(=O)N1C[C@H]2[C@@H](c3ccccc31)[C@H](CO)N2Cc1ccccc1F
1 | CCC(=O)N1C[C@@H](C)[C@@H](OC)CN(C)C(=O)c2cc(NC(=O)Nc3ccc(Cl)cc3)ccc2OC[C@@H]1C
3 | N#Cc1cccc(-c2ccc3c(c2)[C@H]2[C@H](CCN2S(=O)(=O)c2ccccc2)[C@@H](CO)N3)c1
1 | COc1ccc(NC(=O)Nc2ccc3c(c2)C(=O)N([C@@H](C)CO)C[C@@H](C)[C@H](CN(C)S(C)(=O)=O)O3)cc1
10 | O=C(c1ccc2c(c1)OCO2)N1CCCCN2[C@H](C1)[C@@H](c1ccc(-c3ccccc3)cc1)[C@@H]2CO
-15 | C[C@@H]1CN([C@@H](C)CO)C(=O)c2c(c3ccccc3n2C)-c2ccccc2CO[C@H]1CN(C)S(=O)(=O)c1ccc(Cl)cc1
-8 | CCC(=O)N(C)C[C@H]1[C@H](c2ccc(C3=CCCCC3)cc2)[C@@H](CO)N1C(C)=O
-2 | O=C(c1ccc(F)cc1)N1CCCCN2[C@@H](CO)[C@@H](c3ccc(-c4ccccc4)cc3)[C@@H]2C1
2 | CCCC#Cc1ccc([C@@H]2[C@@H](CO)N3CCCCN(CC4CC4)C[C@@H]23)cc1
-18 | COc1ccccc1-c1ccc2c(c1)[C@H]1[C@H](CCN1S(=O)(=O)c1ccc(C)cc1)[C@@H](CO)N2
3 | Cc1noc(C)c1S(=O)(=O)Nc1ccc2c(c1)C(=O)N([C@H](C)CO)C[C@@H](C)[C@@H](CN(C)Cc1ccc(C(=O)Nc3ccccc3N)cc1)O2

# Shown bar-delimited: entries from further up.
Structure | UUG fidelity
O=C(c1ccc(F)cc1)N1CCCCN2[C@@H](CO)[C@@H](c3ccc(-c4ccccc4)cc3)[C@@H]2C1 | -2
CCCC#Cc1ccc([C@@H]2[C@@H](CO)N3CCCCN(CC4CC4)C[C@@H]23)cc1 | 2
CO[C@H]1CN(C)C(=O)c2cc(NC(=O)C3CCC3)ccc2OC[C@H](C)N(Cc2cccnc2)C[C@H]1C | 0
C/C=C/c1ccc([C@H]2[C@@H](CO)N(C(=O)C3CC3)[C@H]2CN(C)C(=O)CC2CC2)cc1 | -7

# The listing picks up; the four compounds before the break are reprinted first.
UUG fidelity | Compound
-2 | O=C(c1ccc(F)cc1)N1CCCCN2[C@@H](CO)[C@@H](c3ccc(-c4ccccc4)cc3)[C@@H]2C1
2 | CCCC#Cc1ccc([C@@H]2[C@@H](CO)N3CCCCN(CC4CC4)C[C@@H]23)cc1
-18 | COc1ccccc1-c1ccc2c(c1)[C@H]1[C@H](CCN1S(=O)(=O)c1ccc(C)cc1)[C@@H](CO)N2
3 | Cc1noc(C)c1S(=O)(=O)Nc1ccc2c(c1)C(=O)N([C@H](C)CO)C[C@@H](C)[C@@H](CN(C)Cc1ccc(C(=O)Nc3ccccc3N)cc1)O2
-8 | Cc1ccc(S(=O)(=O)N(C)C[C@@H]2Oc3ccc(NC(=O)NC4CCCCC4)cc3C(=O)N([C@H](C)CO)C[C@@H]2C)cc1
-3 | C[C@@H]1CN([C@H](C)CO)C(=O)Cc2cc(NS(=O)(=O)c3cn(C)cn3)ccc2O[C@@H]1CN(C)Cc1ccncc1
11 | C[C@H]1CN([C@@H](C)CO)C(=O)c2cccc(NS(=O)(=O)c3ccc(F)cc3)c2O[C@@H]1CN(C)Cc1ccc(C(=O)O)cc1
5 | CN1C(=O)c2cc(NC(=O)C3CC3)ccc2OC[C@@H]2O[C@@H](CC(=O)NCCN3CCCC3)CC[C@@H]21
1 | CCNC(=O)C[C@@H]1CC[C@H]2[C@@H](COC[C@H](O)CN2Cc2ccc(Cl)c(Cl)c2)O1
8 | CO[C@@H]1CN(C)C(=O)c2cc(NC(=O)C3CCCC3)ccc2OC[C@@H](C)N(C(=O)c2ccccc2)C[C@H]1C
-2 | C[C@@H]1CN([C@H](C)CO)C(=O)c2cc(NS(C)(=O)=O)ccc2O[C@@H]1CN(C)S(=O)(=O)c1cccs1
3 | O=C(C[C@H]1C[C@@H]2c3cc(NC(=O)CC4CC4)ccc3O[C@@H]2[C@@H](CO)O1)NCc1ccccc1F
-2 | CCCNC(=O)C[C@H]1C[C@@H]2c3cc(NS(=O)(=O)c4cccc(OC)c4)ccc3O[C@@H]2[C@H](CO)O1
20 | CNC(=O)C[C@H]1CC[C@@H]2[C@@H](COc3ccc(NC(=O)Nc4cccc(C)c4)cc3C(=O)N2C)O1
17 | CC(C)NC(=O)N1CC[C@@H]2[C@H]1c1cc(-c3ccc(F)cc3)ccc1N(C)[C@H]2CO
1 | Cc1cc(C(=O)Nc2cccc3c2O[C@@H](CN(C)S(=O)(=O)c2cccs2)[C@H](C)CN([C@@H](C)CO)C3=O)n(C)n1
-13 | CCS(=O)(=O)N1CCCCN2[C@@H](CO)[C@H](c3ccc(C#CC(C)(C)O)cc3)[C@@H]2C1
4 | CN1C(=O)c2cc(NS(=O)(=O)c3ccc(F)cc3)ccc2OC[C@@H]2O[C@@H](CC(=O)NCC(F)(F)F)CC[C@H]21
1 | CO[C@@H]1CN(C)C(=O)c2ccc(NC(=O)C3CCC3)cc2OC[C@H](C)N(Cc2nccs2)C[C@H]1C
9 | C[C@H]1CN([C@@H](C)CO)C(=O)c2ccccc2-c2ccccc2CO[C@@H]1CN(C)Cc1ccc(C(=O)O)cc1
-11 | CO[C@H]1CN(C)C(=O)c2cc(NC(=O)c3cnccn3)ccc2OC[C@H](C)N(C(C)=O)C[C@@H]1C
25 | Cc1ccc(S(=O)(=O)N(C)C[C@H]2Oc3ccc(NC(=O)Nc4ccc(F)cc4)cc3C(=O)N([C@@H](C)CO)C[C@@H]2C)cc1
-9 | CCC(=O)N1[C@@H](CO)[C@@H](c2ccccc2)[C@@H]1CN(CC)C(=O)c1ccc(F)cc1
2 | CN(C)C(=O)c1cccc(-c2ccc([C@H]3[C@@H](CO)N4CCCCN(CCC(F)(F)F)C[C@@H]34)cc2)c1
8 | C[C@H](CO)N1C[C@H](C)[C@@H](CN(C)S(=O)(=O)c2ccc(Cl)cc2)Oc2ccc(NC(=O)C3CC3)cc2C1=O
-3 | C[C@@H]1CN([C@H](C)CO)C(=O)c2cccc(NS(=O)(=O)c3ccc(Cl)cc3)c2O[C@@H]1CN(C)Cc1ccc2c(c1)OCO2
2 | C[C@@H]1CN([C@@H](C)CO)C(=O)c2cc(NC(=O)C3CCCCC3)ccc2O[C@H]1CN(C)C(=O)Nc1ccccc1
-17 | Cc1ccc(S(=O)(=O)N(C)C[C@@H]2Oc3c(NC(=O)c4nc5ccccc5s4)cccc3C(=O)N([C@H](C)CO)C[C@@H]2C)cc1
-1 | OC[C@H]1Nc2ccc(-c3cccc(F)c3)cc2[C@@H]2[C@H]1CCN2Cc1ccc(F)cc1

# Two records drawn at random from the list so far, as already listed:
UUG fidelity | Compound
-1 | OC[C@H]1Nc2ccc(-c3cccc(F)c3)cc2[C@@H]2[C@H]1CCN2Cc1ccc(F)cc1
1 | CO[C@@H]1CN(C)C(=O)c2ccc(NC(=O)C3CCC3)cc2OC[C@H](C)N(Cc2nccs2)C[C@H]1C

# (cont.)
UUG fidelity | Compound
2 | O=C(Nc1ccccc1)N1C[C@H]2[C@@H](c3ccccc31)[C@@H](CO)N2Cc1ccccc1Cl
25 | C[C@@H]1CN([C@H](C)CO)C(=O)Cc2cc(NS(=O)(=O)c3ccc(F)cc3)ccc2O[C@H]1CN(C)CC1CCCCC1
2 | CNC[C@@H]1Oc2ccc(NC(=O)Cn3cnnn3)cc2CC(=O)N([C@@H](C)CO)C[C@H]1C
14 | Cc1ccc(S(=O)(=O)N(C)C[C@@H]2Oc3ccc(NC(=O)CCCN(C)C)cc3C(=O)N([C@@H](C)CO)C[C@@H]2C)cc1
12 | CN1c2ccc(-c3cccc(F)c3)cc2[C@H]2[C@H](CCN2C(=O)c2ccccc2F)[C@H]1CO
-23 | CN1c2ccc(-c3cccc(F)c3)cc2[C@@H]2[C@@H](CCN2C(=O)Cc2cccnc2)[C@H]1CO
-10 | CCCN1C[C@@H](C)[C@@H](OC)CN(C)C(=O)c2ccc(NC(=O)c3ccccc3)cc2OC[C@@H]1C
-1 | CCS(=O)(=O)N1CCCCN2[C@H](CO)[C@H](c3ccc(-c4ccc(C(=O)N(C)C)cc4)cc3)[C@@H]2C1
0 | COCC(=O)Nc1ccc2c(c1)[C@@H]1C[C@H](CC(=O)N3CCc4ccccc4C3)O[C@@H](CO)[C@@H]1O2
3 | OC[C@H]1[C@@H](c2ccc(C#CC3(O)CCCC3)cc2)[C@@H]2CN(Cc3cncnc3)CCCCN12

# Compound activity (PubChem BioAssay)

# The list is partial, so the mix of outcomes need not match the whole.
